Source: PubChem BioAssay
hNpr1 antagonist: Natriuretic polypeptide receptor (hNpr1) antagonism - Primary qHTS; HEK293 hNpr1 GloSensor cGMP, ANP-stimulated luminescence; Potency, µM (top dose mostly 46.3 µM), for the others: at the top dose activity change, negative = inhibition, hits mostly inhibitors; actives 1.6% (n = 76,000); AID 1347048, 2019; active = well fitted inhibition curve with a large enough effect; inconclusive = small, poorly fitted or top-dose-only effect; inactive = no such curve, though single readings can be large or run the other way;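 note: nearly all actives have a fitted effect of over 60% in size; nearly all hits also lower the signal before the agonist is added; a reference antagonist and vehicle were the controls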
Target sequence (P16066 whole entry, looked up): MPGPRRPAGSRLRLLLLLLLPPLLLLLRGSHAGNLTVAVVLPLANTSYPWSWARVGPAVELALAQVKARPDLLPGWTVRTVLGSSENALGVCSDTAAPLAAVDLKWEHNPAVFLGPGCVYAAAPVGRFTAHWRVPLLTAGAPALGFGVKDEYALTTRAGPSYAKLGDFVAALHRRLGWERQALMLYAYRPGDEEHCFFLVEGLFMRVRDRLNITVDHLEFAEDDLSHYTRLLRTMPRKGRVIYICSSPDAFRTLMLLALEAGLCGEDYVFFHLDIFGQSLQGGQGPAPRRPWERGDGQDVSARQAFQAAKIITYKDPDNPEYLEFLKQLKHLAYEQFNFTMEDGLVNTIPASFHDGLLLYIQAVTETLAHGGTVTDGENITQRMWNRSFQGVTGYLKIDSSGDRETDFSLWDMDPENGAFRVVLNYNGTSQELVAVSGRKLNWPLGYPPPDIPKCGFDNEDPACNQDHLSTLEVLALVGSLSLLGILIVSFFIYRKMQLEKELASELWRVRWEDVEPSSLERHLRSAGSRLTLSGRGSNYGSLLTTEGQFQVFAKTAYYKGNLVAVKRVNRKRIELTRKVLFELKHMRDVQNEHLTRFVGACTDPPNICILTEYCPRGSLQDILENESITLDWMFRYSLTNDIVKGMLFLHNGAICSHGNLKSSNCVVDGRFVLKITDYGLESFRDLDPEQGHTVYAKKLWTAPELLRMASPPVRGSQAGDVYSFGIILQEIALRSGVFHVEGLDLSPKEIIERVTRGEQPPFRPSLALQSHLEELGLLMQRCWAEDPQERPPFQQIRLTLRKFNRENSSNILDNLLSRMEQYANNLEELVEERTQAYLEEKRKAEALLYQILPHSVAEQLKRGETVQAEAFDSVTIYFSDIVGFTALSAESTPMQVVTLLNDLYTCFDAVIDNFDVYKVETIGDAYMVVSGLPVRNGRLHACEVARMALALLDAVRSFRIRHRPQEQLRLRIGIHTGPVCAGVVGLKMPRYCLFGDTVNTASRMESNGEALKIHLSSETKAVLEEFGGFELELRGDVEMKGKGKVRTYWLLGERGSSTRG
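Compound pre-incubated 30 min at room temperature on GloSensor-loaded HEK293 cells stably carrying hNpr1 and the pGS-40F cGMP biosensor. Stimulation uses hNppA at 0.1 nM final; luminescence is taken at baseline and 20 min post-agonist.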
Active calls of the source: *; ? = inconclusive; [ ] = another dose, or the depositor's remark. % is set by controls: 0 for no effect and ±100 for the full control effect; potency is the fitted concentration of half-maximal effect.

The first three compounds, ahead of the listing:
hNpr1 antagonist	mol
2.1%[70.6 µM]	CC1(C(=O)N2CCCC2)CCCc2cnc(Nc3cccnc3)nc21 (stereo not drawn)
-18.9%	O=C(Nc1ccc2c(N3CCCCC3)ncnc2c1)c1ccc(F)cc1
0.3%	COc1ccc(C2(C(=O)NCC3Cn4cccc4C(=O)N3C)CC2)cc1 (stereo not drawn)

This part in full, from the start:
hNpr1 antagonist	mol
2.1%[70.6 µM]	CC1(C(=O)N2CCCC2)CCCc2cnc(Nc3cccnc3)nc21 (stereo not drawn)
-18.9%	O=C(Nc1ccc2c(N3CCCCC3)ncnc2c1)c1ccc(F)cc1
0.3%	COc1ccc(C2(C(=O)NCC3Cn4cccc4C(=O)N3C)CC2)cc1 (stereo not drawn)
-1.1%	CC(C)CN1C(=O)c2ccccc2C(C(=O)Nc2ccncc2)C12CCCC2 (stereo not drawn)
-16.8%	COCCC(=O)NCC12CCC=C1N(CC1CC1)C(=O)CC2 (stereo not drawn)
1.2%	O=C1NC(C(=O)Nc2ccc(F)cc2)Cn2cccc21 (stereo not drawn)
-4.0%	CC(=O)c1cc(CN(CCc2ccccc2)CC2CCCN(C)C2)cs1 (stereo not drawn)
-10.0%	O=C(NCC1Cn2cccc2C(=O)N1Cc1ccccc1)c1ccccc1F (stereo not drawn)

6 compounds from above, sorted by the value under hNpr1 antagonist, lowest first.
mol	hNpr1 antagonist
COCCC(=O)NCC12CCC=C1N(CC1CC1)C(=O)CC2 (stereo not drawn)	-16.8%
O=C(NCC1Cn2cccc2C(=O)N1Cc1ccccc1)c1ccccc1F (stereo not drawn)	-10.0%
CC(=O)c1cc(CN(CCc2ccccc2)CC2CCCN(C)C2)cs1 (stereo not drawn)	-4.0%
CC(C)CN1C(=O)c2ccccc2C(C(=O)Nc2ccncc2)C12CCCC2 (stereo not drawn)	-1.1%
COc1ccc(C2(C(=O)NCC3Cn4cccc4C(=O)N3C)CC2)cc1 (stereo not drawn)	0.3%
O=C1NC(C(=O)Nc2ccc(F)cc2)Cn2cccc21 (stereo not drawn)	1.2%

Additional records follow.
hNpr1 antagonist	mol
2.3%	COCC(=O)N1CCC(CCOc2ccc(C)cc2)C1 (stereo not drawn)
11.5%	O=C(C1CCCN(c2nc3ncccc3o2)C1)N1CCN(c2ncccn2)CC1 (stereo not drawn)
-13.1%	O=C(c1cccnc1)N1CCN(C(=O)c2nnn3c2COC(c2ccc(Cl)cc2)C3)CC1 (stereo not drawn)
-2.6%	COc1cccc(S(=O)(=O)N2CCCN(S(=O)(=O)c3ccccc3)CCC(=O)NCC2)c1
0.9%	N#Cc1ccc(C(=O)N2CCOCCNC(=O)[C@@H]3CCC[C@@H]32)cc1
5.5%	Cc1cnn(C)c1S(=O)(=O)NC1CC(c2cc(N3CCCC3)ncn2)C1 (stereo not drawn)
-1.5%	COc1ccc(C2Cn3nnc(-c4nc(-c5ccc(F)cc5)no4)c3CO2)cc1 (stereo not drawn)
2.8%	O=C1CC(c2ccccc2)N(C(=O)CNS(=O)(=O)c2cccc(F)c2)CCCCCN1 (stereo not drawn)

(cont.)
hNpr1 antagonist	mol
-14.2%[70.6 µM]	CC1=C[C@@H](CC#N)[C@H](C(C)C)C[C@H]1CC(=O)N1CCC(C)CC1
5.2%	O=C1CC(c2ccccc2)N(Cc2ccncc2)CCCN(C(=O)CN2CCCCCC2)CCN1 (stereo not drawn)
-0.8%	Cc1nc(C)c(C(=O)NCC23CCCC=C2N(CC2CC2)C(=O)CC3)s1 (stereo not drawn)
10.8%	COC(=O)c1ccc(N2C[C@H]3OC(=O)N(Cc4ccccc4OC)[C@H]3C2)nc1
8.6%	CNC(=O)Nc1ccc(C2(C(=O)N3CCN(c4ccccc4)CC3)CCC2)cc1
1.0%	CN(C)CCCNC(=O)C1CCCN(S(=O)(=O)c2ccccc2)CCC(=O)NCC1 (stereo not drawn)
2.4%	Cc1cccc(N2C(=O)CSC23CCN(C(=O)COc2ccccc2)CC3)c1
6.6%	COc1ccc(CN2CC(OCc3cccnc3)CN(C(=O)c3ccccn3)CC2=O)cc1 (stereo not drawn)

Going on with the list.
hNpr1 antagonist	mol
5.3%	CCn1c(CN2CCN(Cc3csc(C)n3)CC2)nnc1C1CC(N)C1 (stereo not drawn)
-1.4%	CC(C)(C)n1nnnc1C1CC2(CCOCC2)C(=O)N1Cc1ccc(F)cc1F (stereo not drawn)
3.0%	COCCn1ccc2cc(C(=O)Nc3ccc4c(c3)C(=O)N3CCC[C@H]3C(=O)N4)ccc21
4.0%	Cc1nnnn1CC(=O)NCc1cccnc1N(C)CCc1ccccn1
8.7%	Cc1nnnn1CCC(=O)N1CCCC(c2nnc(Cn3ccnc3)n2C)C1 (stereo not drawn)
0.1%	O=C(C1COc2ccccc2O1)N1CCc2nc3cc(-c4ccccc4)[nH]n3c(=O)c2C1 (stereo not drawn)
2.8%	COCCc1noc([C@@H]2CN(CC3CCCCC3)C[C@H]2CO)n1
5.5%	Cc1ccc(NC(=O)Cn2nc3n(c2=O)CCCCC3)cc1C

Next compounds follow:
hNpr1 antagonist	mol
10µM*	COc1ccc(NC(=O)Nc2cccc(-c3ccc(N4CCOCC4)nn3)c2)cc1F
5.5%	COc1ccc(C(=O)N2CC3CC(C2)[C@H]2CCCC(=O)N2C3)c(OC)c1 (stereo partly drawn)
5.6%	O=C1NCCCCCN(C(=O)NCCc2ccccc2)[C@H]2CCCC[C@@H]12
4.9%	CN(C)C(=O)CNC(=O)c1cccc(S(=O)(=O)NCCn2ccnc2)c1
-5.9%	CCS(=O)(=O)N(C1CC1)C1CCOC2(CCN(C(=O)c3ccc(F)cc3)CC2)C1 (stereo not drawn)
-9.1%	O=C(CCC1CCN(C(=O)c2ccccc2)CC1)NCC1CCCCC1
-0.5%	CCCc1noc(CN(C)C(/C=C/c2ccccc2)C(=O)O)n1 (stereo not drawn)
-1.6%[70.6 µM]	COC[C@H]1C[C@@H](NCc2c(C)noc2C)[C@H](O)[C@@H]1O

Next structures
hNpr1 antagonist	mol
-13.3%	COc1ccc(CC(=O)Nc2ccc3c(c2)CN(Cc2ccc(OC)cc2OC)C(=O)C(C)O3)cc1 (stereo not drawn)
2.3%	O=C(c1ccc[nH]c1=O)N1C[C@@H](COCC2CC2)[C@H](c2ccccn2)C1
-2.2%	CN(C)S(=O)(=O)NCC1CCCN(C(=O)Cc2ccc3c(c2)OCO3)C1 (stereo not drawn)
4.0%	Cc1cccn2c(CNC(=O)CCc3cc4n(n3)CCCNC4)cnc12
-8.3%	Cc1ccc(NC(=O)N2CCC(Cc3nncn3Cc3ccccc3)C2)cc1C (stereo not drawn)
-3.0%	COc1ccc(C(=O)N2CCc3nnc([C@@H]4C[C@@H](O)CN4C)n3CC2)cc1F
-14.4%[70.6 µM]	CCC(CC)C(=O)NC[C@@H]1C=C(C)[C@H](Cc2nc3c(C)cccc3[nH]2)C[C@H]1C(C)C
-5.6%	COc1c[nH]c(CN2CCCC(CCc3ccccc3C(F)(F)F)C2)cc1=O (stereo not drawn)

(cont.)
hNpr1 antagonist	mol
4.0%	CCN1CCC(CCNC(=O)CCC[C@@H]2[C@H]3CCCN4CCC[C@@H](CN2C(C)=O)[C@@H]34)CC1
-24.1%[70.6 µM]	O=C(Nc1cccnc1)[C@@H]1C[C@H](c2ccc(F)cc2)N(Cc2ccccc2Cl)C1
3.1%	CCN1CCN(CCCNC(=O)c2cn3ccnc(-c4ccc(C)cc4)c3n2)CC1
-2.4%	CCN(Cc1ccccc1)C(=O)C1CCCN(C(=O)c2cccnc2)CCC(=O)NCC1 (stereo not drawn)
-4.3%	O=C(Cc1ccc(F)cc1)Nc1ccc2ncnc(N3CCCC3)c2c1
-14.1%	C[C@H]1CN(S(=O)(=O)c2ccccc2)C[C@@H]1c1nc(-c2ccncc2)no1
-12.8%	COc1ccccc1C(=O)N1CCC2(CC1)COc1ccccc1C(=O)N2
-17.4%	CCN(CC)C(=O)c1coc(COc2ccc3c(c2)C(c2cccc(F)c2)N(C(=O)C(C)C)CC3)n1 (stereo not drawn)

Next results follow.
hNpr1 antagonist	mol
-1.2%[70.6 µM]	COC(=O)N(C)Cc1cccc(C(F)(F)F)c1
-3.8%	CCC(=O)NCC12CCCC=C1N(C)C(=O)CC2 (stereo not drawn)
2.3%	O=C(NC1CCN(c2cnn(Cc3ccccc3)c(=O)c2)CC1)c1ccoc1
-9.4%	CCOc1ccc(C(=O)N2CCC3(CC2)N(CCOC)C(=O)CS3(=O)=O)cc1
-20.7%	O=C(NCCc1ccccc1)N1CCC(Oc2ccc(-c3noc(C4CC4)n3)cc2)C1 (stereo not drawn)
-1.6%	Cn1cc(C(NS(=O)(=O)c2cccc3c2OCCO3)C2CC(O)C2)cn1 (stereo not drawn)
-2.0%	COc1ccc(N2Cc3c(NCC4CCCCCC4)ncnc3N(C)CC2=O)cc1
-17.3%	CN(Cc1cccnc1)c1nc2c(c(=O)[nH]1)CCN(Cc1ccc(C(F)(F)F)cc1)CC2

(more compounds)
hNpr1 antagonist	mol
2.5%[70.6 µM]	c1ccc(CN2CC[C@H](c3nnc(Cc4c[nH]c5ccccc45)o3)C2)cc1
-10.3%	CCN(CC)c1ccc(C(=O)N2CCCC(n3cc(-c4noc(C)n4)nn3)C2)cc1 (stereo not drawn)
10.7%[70.6 µM]	O=C(NCc1ccccn1)C1CCCN(c2nc3ncccc3o2)C1 (stereo not drawn)
4.1%[70.6 µM]	CN(C)C[C@H]1O[C@@H]2C[C@@H](CC(=O)N3CCC(F)(F)C3)O[C@@H]2[C@@H]1O
0.2%	Cc1ccc(C(=O)NCC23CCC=C2N(C)C(=O)CC3)cn1 (stereo not drawn)
-18.8%	Cc1nn(-c2ccc(F)cc2)c(Oc2ccccc2F)c1CCC(=O)NCc1ccco1
-2.0%	O=C([C@@H]1COCC(=O)N1Cc1ccccc1)N1CCN(Cc2ccc3c(c2)OCO3)CC1
-1.1%	O=C(CCC[C@H]1NC[C@@H]2C[C@H]1CN(Cc1ccccc1)C2)N1CCN(c2ncccn2)CC1

Next entries follow:
hNpr1 antagonist	mol
2.0%	Cc1c(CN2CC[C@H]3CC[C@@H](C2)N3)c(=O)n(-c2ccccc2)n1C
2.3%	O=C(C1CCN(C(=O)N2CC3CC(C2)[C@H]2CCCC(=O)N2C3)CC1)N1CCN(c2ncccn2)CC1 (stereo partly drawn)
3.3%	O=C(NCc1ccc(N2CCOCC2)cc1)c1ccc(N2CC3CC(C2)[C@H]2CCCC(=O)N2C3)nc1 (stereo partly drawn)
1.2%	COc1ccc(N2CC(C(=O)NCc3ccc(F)cc3)NC2=O)cc1 (stereo not drawn)
-2.4%	O=C(Cc1ccccc1)NC[C@H]1O[C@H](Cc2cc(CN3CCNCC3)on2)CC[C@@H]1O
?	CN1CCC(OC2CCN(C(=O)c3ccc(F)c(F)c3)CC2)CC1
0.9%	COCCCNC(=O)C(NC(=O)c1ccc(C)cc1)C1CCN(C(=O)c2ccccc2C)CC1 (stereo not drawn)
2.3%	COC[C@H]1NC(=O)CC[C@H]1C(=O)Nc1cccc(OC)c1

Following part:
hNpr1 antagonist	mol
2.9%	Cc1nc(C(=O)N2CC[C@H](NC(=O)C3CCNCC3)C[C@H]2C(=O)N[C@@H](Cc2cccs2)C(N)=O)cs1
16.3%	Cn1ccnc1C(=O)N1CCCC(c2noc(COc3ccccc3F)n2)C1 (stereo not drawn)
2.9%	O=C(CCn1ccn2nc3c(c2c1=O)CCCC3)NC1CCCC1
?	COc1cccc(CN2CCc3nc(C(=O)Nc4cccnc4)oc3CC2)c1
-16.0%	CN1CC(=O)N(c2ccccc2F)Cc2c(NC3CCOC3)ncnc21 (stereo not drawn)
-0.5%	Cn1cc(CN2C[C@H](C(=O)NCc3ccccc3)C[C@H]2c2cccc(C(F)(F)F)c2)cn1
-0.6%	Cc1cc(C)n2nc(C(=O)N3CCC(Cc4cccc(C(N)=O)c4)C3)nc2n1 (stereo not drawn)
-2.8%	Cc1ccc(C(=O)N2CCCn3cc(-c4cccc(C#N)c4)nc32)cc1

Next compounds
hNpr1 antagonist	mol
-3.3%	COCCCn1c(C)cc(C(=O)NCCc2noc(-c3ccccc3)n2)c1C
4.7%	COc1ccc(Cl)cc1C(=O)N1CCN(c2cc(C(F)(F)F)nc(C)n2)CC1
?	COc1cccc(-c2cc(C3CCN(S(=O)(=O)c4ccc(C#N)cc4)CC3)[nH]n2)c1
-0.1%	CCCCNC(=O)COc1ccc(NC(=O)C2CC2)cn1
1.9%	CNC(=O)CCC[C@H]1NC[C@@H]2CC1CN(Cc1ccccc1)C2
3.8%[70.6 µM]	CCN(CC)C(=O)[C@@H]1CCC[C@@H](NC(=O)c2cncnc2)CN(C)C(=O)C1
-0.8%[70.6 µM]	Cc1nn(CCC#N)c(C)c1[C@@H]1C=C[C@@H](NS(=O)(=O)c2ccccc2)C1
0.8%	COCCCNC(=O)CCc1cc2ccccc2[nH]c1=O

Other structures follow.
hNpr1 antagonist	mol
0.3%	CS(=O)(=O)c1cnc(NCCCc2ccccc2)nc1C1CCCNC1 (stereo not drawn)
-17.6%	COc1ccc(CCC(=O)N2CCC(C(=O)N3CCCCCCNC(=O)CC3)CC2)cc1
5.0%	CS(=O)(=O)Nc1ccc(OCC(=O)N2CCN(c3ccc(F)cc3)CC2)nc1
-8.0%	C=CCNC(=O)C1COC2(CCCCC2)N1C(=O)c1cccc(F)c1 (stereo not drawn)
0.7%	O=C(Cn1ccn2nc3c(c2c1=O)CCCC3)NCCCc1ccccc1
-0.2%	CNC(=O)c1cc[nH]c1C1CCCN(C(=O)CCc2nc3ccccc3s2)C1 (stereo not drawn)
0.9%	Cc1ccc(C(=O)N2CCC(c3n[nH]c(=O)n3Cc3ccc(F)cc3)CC2)cc1

These rows are one share of the data; rates above refer to the full screens.
